RN4220 kill = growth inhibition of S. aureus RN4220, primary screen, OD600; 16 h; inhibition, % (no concentration beside the values); 0.33% of 330,000 active; AID 1259311, 2017;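 active means z-score of -3 or lower and OD600 up to 0.18 on both plates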;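 further: plate controls were untreated cells for no effect and reference antibiotic for full effect; stock transfer was 100 nL into about 80 µL; one replicate is shown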
ugtP null kill = growth inhibition of ugtP-null S. aureus, primary screen, RN4220 ugtP deletion, OD600. growth inhibition, % (no concentration beside the values). 0.54% of 330,000 active. 16 h; some inactives read as strong as hits;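 active means z-score under -3 and OD600 up to 0.15 on both plates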;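 further: plate controls were untreated wells for no effect and antibiotic for full effect; wells of about 80 µL received 100 nL stock; the first replicate is given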
Bead autofluor = compound fluorescence in toxin protease inhibitor counterscreen. compound autofluorescence counterscreen, microsphere flow cytometry; active compounds read high. fluorescence intensity (concentration not given with the values). 3.1% of 360,000 active. AID 624483;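 active means at least 3 SD above the mean of all compounds, about 16000 in these data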;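 further: 100 nL of 1 mM stock went into each well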
Mtb hypoxia inh = PubChem AID 1159583. 0.1% of 300,000 active. M. tuberculosis hypoxia-regulated fluorescent reporter, fluorescence. fluorescence inhibition, % (no concentration beside the values);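 active means 35 to 45% if threefold the growth effect, above 45% if 1.5-fold the growth effect; inactive means the rest, general growth blockers included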;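 further: wells of about 50 µL received 100 nL stock; 0% = vehicle wells and 100% = reference inhibitor wells; whole bacteria with a GFP reporter of the hypoxia response; strong numbers were not always called active; many hits fall short of the cut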
BJeLR viability = MLPCN primary cell-based screen for lethality selective to Ras in HRASV12 cells | inhibition, % (concentration not given with the values) | BJeLR (HRASV12) viability, CellTiter-Glo ATP luminescence, 48 h; reference of the scale not given here | 0.17% of 300,000 active | AID 1554, 2009;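 active means replicate mean above 50%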;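 further: 50 nL library stock added to about 25 µL; numbers are from one replicate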
PrP 5UTR inh = inhibition of PrP 5' UTR reporter expression. cell-based PrP 5' UTR mRNA reporter, plate reader. inhibition, % (no concentration beside the values). 0.35% of 340,000 active;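 active means every replicate at 50% or more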;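 further: 0 = median of the neutral control wells; tested in H4 reporter cells; numbers are from one replicate; inactives centre near -14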
Mtb hypoxia inh growth = second read-out of Mtb hypoxia inh, no call of its own (marks repeat the call); growth inhibition, %; measured here: M. tuberculosis growth (absorbance);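 0% = vehicle and 100% = reference antibiotic; read after six days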
* marks the source's active call; other numbers are inactive results; . = no result given.

smiles | PrP 5UTR inh | Mtb hypoxia inh | ugtP null kill | BJeLR viability | Mtb hypoxia inh growth | Bead autofluor | RN4220 kill
COc1cccc(C(=O)/C=C/c2ccc(SC)cc2)c1 | -39 | 8 | 10 | 1 | 13 | 10375 | 8.4
Cc1cc(-n2cnc(-c3cn[nH]c3C)n2)no1 | -6 | 5 | 5 | 9 | 6 | 3081 | -0.5
C/C(=N\NC(=O)c1ccccc1)c1ccc(C)c([N+](=O)[O-])c1 | -48 | . | . | 10 | . | 2277 | .
CC(C)(C)N(Cc1ccccc1)C(=O)COC(=O)/C=C/c1ccc2c(c1)OCO2 | -5 | -11 | 1 | . | -10 | 8789 | 0.7
CCn1c(C)c(C)c2cc(C(=O)NCCCN3CCCCC3)ccc21 | -21 | 14 | 6 | 2 | 6 | 7293 | 2.1
COc1ccc(CC(=O)Nc2cccc(C(C)=O)c2)cc1S(=O)(=O)N1CCOCC1 | 1 | 1 | 3 | . | -3 | 3022 | 1.2
Cc1ccc(C(=O)N2CCC(C(=O)Nc3cccc([N+](=O)[O-])c3)CC2)cc1 | -4 | -8 | 0 | 0 | -8 | 6424 | 1.4
CCc1ccc(N(C(=O)c2ccco2)C(C(=O)NC2CCCC2)c2ccco2)cc1 (stereo not given) | -22 | . | 5 | 11 | . | 3187 | 1.1
CC(C)c1ccc(C(O)Cc2nc3ccccc3n2C)cc1 (stereo not given) | -22 | 7 | 10 | 2 | -2 | 5770 | 5.9
CCc1c(C)nc(SCC(=O)c2ccc(C)c(C)c2)[nH]c1=O | -20 | 14 | -4 | -6 | 10 | 7518 | 5.6
O=C(CNC1CCCC1)Nc1ccc(N2CCCCCC2)cc1 | -9 | -4 | 27 | 3 | 2 | 4383 | 9.2
O=C(O)CCCC(=O)Nc1cccc([N+](=O)[O-])c1 | -6 | 14 | -2 | 6 | 0 | 7559 | -0.4
Cc1cc(NC(=O)CC#N)n(-c2nc3ccccc3[nH]2)n1 | -37 | 2 | 8 | 1 | -4 | 4676 | 0.6
CC(C)CN(CC(C)C)C(=O)Cc1coc2ccc3ccccc3c12 | -34 | . | 2 | 4 | . | 4089 | 3.5
C=CCN1c2ccccc2[C@]23CC(C(=O)OC)N(C(=O)CC(C)C)C2=NC(C(=O)OC)=C(C(=O)OC)C13 (stereo not given in full) | . | -2 | 3 | . | -7 | . | -3.7
COC(=O)c1sc(NC(=O)COc2cccnc2[N+](=O)[O-])c(C(=O)OC)c1C | -15 | 2 | -7 | . | 1 | 5364 | 2.4
CC(OC(=O)c1ccccc1O)C(=O)Nc1cccc(Cl)c1 (stereo not given) | -18 | . | . | -31 | . | 4256 | .
NC(=O)c1ccccc1N | -17 | . | -2 | -4 | . | 3998 | 1.9
COc1ccc(-c2nc3c(n2O)CCCC3=O)cc1OC | -4 | . | 3 | 1 | . | 4786 | -0.2
CCOC(=O)c1c(C)n(C)c2ccc(OC)c(NC(=O)CCN3CCSCC3)c12 | 1 | 6 | 7 | -4 | 0 | 4359 | 0.8

Given with each value named: part of the list above.
COc1cccc(C(=O)/C=C/c2ccc(SC)cc2)c1
  PrP 5UTR inh: -39; Mtb hypoxia inh: 8; ugtP null kill: 10; BJeLR viability: 1; Mtb hypoxia inh growth: 13; Bead autofluor: 10375; RN4220 kill: 8.4
CC(C)c1ccc(C(O)Cc2nc3ccccc3n2C)cc1 (stereo not given)
  PrP 5UTR inh: -22; Mtb hypoxia inh: 7; ugtP null kill: 10; BJeLR viability: 2; Mtb hypoxia inh growth: -2; Bead autofluor: 5770; RN4220 kill: 5.9
COc1ccc(CC(=O)Nc2cccc(C(C)=O)c2)cc1S(=O)(=O)N1CCOCC1
  PrP 5UTR inh: 1; Mtb hypoxia inh: 1; ugtP null kill: 3; BJeLR viability: .; Mtb hypoxia inh growth: -3; Bead autofluor: 3022; RN4220 kill: 1.2
C=CCN1c2ccccc2[C@]23CC(C(=O)OC)N(C(=O)CC(C)C)C2=NC(C(=O)OC)=C(C(=O)OC)C13 (stereo not given in full)
  PrP 5UTR inh: .; Mtb hypoxia inh: -2; ugtP null kill: 3; BJeLR viability: .; Mtb hypoxia inh growth: -7; Bead autofluor: .; RN4220 kill: -3.7

Other entries:
smiles | PrP 5UTR inh | Mtb hypoxia inh | ugtP null kill | BJeLR viability | Mtb hypoxia inh growth | Bead autofluor | RN4220 kill
CS(=O)c1nc(-c2ccc(Br)cc2)cc(-c2ccccc2)c1C#N (stereo not given) | -3 | 12 | -19 | 44 | 15 | 9522 | 16
CN1C(=O)CSc2ccc(NC(=O)Nc3ccccn3)cc21 | -137 | 5 | -10 | -8 | 6 | 9935 | 9.0
Cc1nn(-c2ccccc2)c(N)c1C(O)(CC(=O)C(F)(F)F)C(F)(F)F (stereo not given) | -14 | 5 | 72 | 3 | -3 | 2330 | -1.3
Nc1cccc(P(=O)(c2ccccc2)c2ccccc2)c1 | -6 | 13 | 3 | 1 | 7 | 3439 | 0.4
COC(=O)C1C2C=CC3(CN(Cc4cccs4)C(=O)C13)O2 (stereo not given) | 5 | -2 | 9 | -3 | -2 | 3636 | 4.5
COC(=O)c1cc2ccccc2c(-c2c(O)ccc3ccccc23)c1O | -16 | -6 | -27 | 3 | -6 | 2391 | -0.5
Brc1ccc(Oc2ncc(CN3CCOCC3)s2)cc1 | -14 | 17 | 4 | 1 | 10 | 18177* | 2.2
CN(CCc1ccccn1)S(=O)(=O)c1ccc(F)cc1 | -29 | . | -8 | 9 | . | 2390 | -4.6
FC(F)(F)c1ccnc(Sc2n[nH]c(C(F)(F)F)n2)c1 | -7 | 12 | 6 | 11 | 2 | 4096 | 19
Nc1nc2nc(SCC(=O)N3CCCc4ccccc43)[nH]c2c(=O)[nH]1 | . | 11 | 3 | -1 | 4 | . | 3.3
CCCCCCCOc1ccc(-c2ccc(C#N)cn2)cc1 | -8 | 6 | 17 | 14 | -3 | 10486 | -1.7
O=C1NN(c2ccc(F)cc2)C(=O)/C1=C/c1cccs1 | -20 | 11 | 2 | 2 | 2 | 3827 | 6.6
O=C1CC(Nc2ccccc2)C(=O)N1c1ccc(N2CCOCC2)cc1 (stereo not given) | -5 | . | 1 | . | . | 3622 | 3.6
COCCN(C(=S)Nc1cc(C)cc(C)c1)C(C)c1cccnc1 (stereo not given) | -5 | 2 | 4 | -11 | 3 | 2458 | 3.6
CCCCN(C(=O)NC(=O)Nc1nc2ccc(OC)cc2s1)S(C)(=O)=O | -40 | -1 | -6 | 2 | 4 | 4430 | -2.7
COCCc1ncc(CN2CCCC(C(=O)Nc3cccc(-c4cccc(C)c4)c3)C2)cn1 (stereo not given) | -2 | 5 | 4 | -2 | 8 | 4288 | 0.0
O=C(O)CCn1c(-c2ccccc2)cc2ccccc21 | -19 | -8 | 11 | -2 | -9 | 4135 | 2.4
Cc1ccc(CCNC(=O)C2CCN(S(=O)(=O)c3cccc4nsnc34)CC2)cc1 | -16 | 8 | -6 | 0 | 6 | 3133 | -2.8
Cc1[nH]c(=O)[nH]c(=O)c1S(=O)(=O)N1CCCC1 | 5 | . | 7 | 5 | . | 2204 | -1.8
CCn1c(=O)c(CCC(=O)NCC2CCCO2)c(C)c2c(C)nn(-c3ccccc3)c21 (stereo not given) | -5 | -1 | -6 | -8 | 5 | 5556 | -0.2
CCOC(=O)c1c(/N=C/N(C)C)sc(C=O)c1-c1ccccc1 | -15 | . | . | 5 | . | 2720 | .
Cc1ccc(Nc2nc(N3CCOCC3)nc(N3CCOCC3)n2)cc1C | -12 | 4 | -1 | -2 | -3 | 5943 | 0.0
COc1ccc(-c2nnc(-c3cccnc3)o2)cc1 | -30 | 22 | 4 | 0 | 20 | 9727 | 2.4
Cc1cccn2c(=O)c3cc(C(=O)NC4CCCCC4)c(=N)n(Cc4ccccc4)c3nc12 | -10 | -8 | 0 | 3 | 7 | 6527 | -4.1
CC1CCCN(Cc2ccc(OCc3ccccc3)cc2)C1 (stereo not given) | -5 | 3 | 5 | -7 | 15 | 3860 | -7.4
Nc1ccc(Sc2cnn(-c3ccccc3)c(=O)c2Cl)cc1 | 4 | 17 | -6 | 3 | 8 | 2958 | -11
O=C(CSc1nc2c(cnn2-c2ccccc2)c(=O)[nH]1)N1N=C(c2cccs2)CC1c1ccc(F)cc1 (stereo not given) | -20 | 5 | -7 | -10 | -1 | 4446 | -14
Nc1ccc2nc(C(F)(F)F)[nH]c2c1 | -18 | 8 | 2 | -2 | 6 | 1987 | 1.5
COc1ccc([C@@H]2Sc3ccccc3NC(=O)[C@@H]2O)cc1 | -24 | -6 | 7 | -4 | -2 | 5300 | 1.0
CN(CC(=O)Nc1ccccc1N1CCOCC1)CC(=O)Nc1ccc(F)c(F)c1F | -3 | 5 | -6 | -1 | 4 | 2785 | 8.4
CN(C)S(=O)(=O)c1cccc(NC(=O)COC(=O)CNC(=O)c2cccc([N+](=O)[O-])c2)c1 | . | -1 | 2 | 7 | -8 | 4965 | -0.8
C#CCOCCOCCOCCNc1nc(N2CCN(C(=O)C(Cc3ccc(O)cc3)n3cc(C(N)CC(C)C)nn3)CC2)nc(N2CCN(C(=O)C(C(C)CC)n3cc(C(N)Cc4ccc(O)cc4)nn3)CC2)n1 (stereo not given) | . | . | 0 | . | . | . | -0.1
CCOC(=O)c1ccc2c(c1)n(Cc1ccccc1)c(C)[n+]2CC | -21 | 13 | 6 | -3 | 13 | 3524 | 8.2
Cc1ccc(C)c(NC(=O)CCN2CCN(C)CC2)c1 | -33 | 8 | 13 | -2 | -2 | 4074 | 4.1
Cc1cccc(NC(=O)c2ccccc2O)c1C | -45 | 15 | -4 | 7 | 10 | 10095 | 28
Cc1c(/C(O)=C2\C(=O)C(=O)N(CCCN(C)C)C2c2ccco2)cnn1-c1ccccc1 (stereo not given) | 17 | 2 | 6 | . | 4 | 4386 | 1.6
Cc1[nH]n(-c2ccccc2)c(=O)c1C=Nc1ccc(S(=O)(=O)N=C(N)N)cc1 | -14 | 6 | 1 | 6 | 8 | 3221 | 1.9
COc1cccc(C=NNC(=O)C(=O)N2CCCC2)c1O | . | 6 | 0 | . | 4 | . | 1.3
O=C(c1cc(C(=O)NCc2ccccc2)c(=O)n(Cc2ccccc2)c1)c1cc(Cl)ccc1O | -9 | 2 | -3 | -5 | 0 | 2061 | -2.0
Cc1ccc(CSc2ccc(S(=O)(=O)N3CCCC3)cn2)cc1 | -12 | 10 | 13 | . | 2 | 6775 | 4.2
O=C(Nc1ccc(Cl)c([N+](=O)[O-])c1)c1ccc(NCCCN2CCOCC2)c([N+](=O)[O-])c1 | 2 | 18 | 7 | -3 | 24 | 23261* | 3.7
CCOc1ccc(Nc2oc(-c3cccc(Cl)c3)nc2C#N)cc1 | -69 | 1 | 1 | 5 | 2 | 23170* | 3.8
O=[N+]([O-])c1ccc(/C=N/n2cnc3ccccc32)s1 | -22 | . | . | 5 | . | 9692 | .
CCN(CC)C(=O)Cn1nc(-c2ccccc2O)nc1SCC(=O)Nc1ccc(OC)cc1 | -5 | 12 | 7 | -5 | 17 | 11210 | 2.6
Cc1cccc(Nc2ccc([N+](=O)[O-])cn2)c1 | -26 | -5 | 0 | -4 | -7 | 3092 | 1.2
CN1CCN(C2Cc3cc(Cl)ccc3Sc3cc(F)ccc32)CC1 (stereo not given) | -29 | . | 20 | 3 | . | 6449 | -14
CCC(=O)Nc1cccc(C(=O)OCc2cccc([N+](=O)[O-])c2)c1 | -21 | 3 | 4 | -4 | 2 | 2002 | 0.2
Cc1cc2c(=O)n(C)c(SCC(=O)NC3CCCC3)nc2s1 | -14 | 5 | 4 | -20 | -12 | 6288 | 1.1
Cc1ccc2c(c1)N(CC(=O)NCC1CCCO1)C(=O)CO2 (stereo not given) | -3 | 3 | -4 | 0 | 3 | 5098 | 0.1
CN(C)CCCN(C(=O)c1cc2ccccc2oc1=O)c1nc2ccc(F)cc2s1 | -25 | -3 | -7 | 16 | 0 | 10990 | -8.8

Following part.
smiles | PrP 5UTR inh | Mtb hypoxia inh | ugtP null kill | BJeLR viability | Mtb hypoxia inh growth | Bead autofluor | RN4220 kill
COc1ccc(S(=O)(=O)NCc2ccccn2)cc1 | -10 | 0 | 5 | -8 | 3 | 3861 | 5.2
NC(=O)CSc1nnc(-c2ccc(S(=O)(=O)N3CCCC3)cc2)n1CC1CCCO1 (stereo not given) | -7 | 3 | 0 | -6 | 1 | 10194 | 4.8
Cc1cc(C)cc(NC(=O)CSc2nc(N)c(NC(=O)c3cccs3)c(=O)[nH]2)c1 | -27 | -3 | 1 | -17 | -1 | 5786 | 7.4
COc1cccc(NC(=O)COC(=O)/C=C/c2c(C)nn(-c3ccccc3)c2C)c1 | -22 | 11 | 10 | . | 3 | 7808 | 3.4

Screens as filed in PubChem BioAssay.
